RGS16-Gao HTS – regulators of human RGS16-Galphao interaction | O15492+P09471 | 220,000 compounds, 0.38% hits | binding response (% of control), % at 10 µM | bead-based flow cytometry RGS16-Galphao binding, fluorescence; actives lie on both sides;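 active means below 25% or above 175%, edge rows of some plates excepted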;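 further: Galphao activated by GDP with aluminum fluoride before binding; 100% = wells without compound and 0% = beads without RGS; some results beyond the cut were filed as inactive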
Insulin prom inh – TRM-6 insulin promoter activity inhibition; TRM-6 cells (human fetal islet line), insulin promoter-eGFP reporter, imaging; reporter expression induced with tamoxifen; inhibition, % at 2 µM; 130,000 compounds, 0.9% hits;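 active means inhibition above the mean plus 3 SD, with well images judged a real hit on visual review, cut at about 60% in these data, passing the limit was not always enough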
GALR2 ag – GALR2 (human) receptor agonism; O43603; GALR2-expressing cells, agonist activation read-out; activation, %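 (tested at 5 µM)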; 140,000 compounds, 0.48% hits; AID 803;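 active means above mean plus 3 SD of all compounds, about 5% in these data, not always enough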;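 further: 0% = vehicle buffer wells and 100% = reference agonist at full effect; tested in CHO reporter cells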
PKD1 inh – blocks activity of human protein kinase D1 | inhibition, %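 (about 10 µM by stock and volumes)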 | 200,000 compounds, 0.056% hits | AID 797 | PKD1 kinase fluorescence polarization assay | Q15139;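 active means inhibition of 50% or more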;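 further: controls were vehicle for no effect and a reference inhibitor for full effect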
Target sequence (Q15139 whole entry, looked up): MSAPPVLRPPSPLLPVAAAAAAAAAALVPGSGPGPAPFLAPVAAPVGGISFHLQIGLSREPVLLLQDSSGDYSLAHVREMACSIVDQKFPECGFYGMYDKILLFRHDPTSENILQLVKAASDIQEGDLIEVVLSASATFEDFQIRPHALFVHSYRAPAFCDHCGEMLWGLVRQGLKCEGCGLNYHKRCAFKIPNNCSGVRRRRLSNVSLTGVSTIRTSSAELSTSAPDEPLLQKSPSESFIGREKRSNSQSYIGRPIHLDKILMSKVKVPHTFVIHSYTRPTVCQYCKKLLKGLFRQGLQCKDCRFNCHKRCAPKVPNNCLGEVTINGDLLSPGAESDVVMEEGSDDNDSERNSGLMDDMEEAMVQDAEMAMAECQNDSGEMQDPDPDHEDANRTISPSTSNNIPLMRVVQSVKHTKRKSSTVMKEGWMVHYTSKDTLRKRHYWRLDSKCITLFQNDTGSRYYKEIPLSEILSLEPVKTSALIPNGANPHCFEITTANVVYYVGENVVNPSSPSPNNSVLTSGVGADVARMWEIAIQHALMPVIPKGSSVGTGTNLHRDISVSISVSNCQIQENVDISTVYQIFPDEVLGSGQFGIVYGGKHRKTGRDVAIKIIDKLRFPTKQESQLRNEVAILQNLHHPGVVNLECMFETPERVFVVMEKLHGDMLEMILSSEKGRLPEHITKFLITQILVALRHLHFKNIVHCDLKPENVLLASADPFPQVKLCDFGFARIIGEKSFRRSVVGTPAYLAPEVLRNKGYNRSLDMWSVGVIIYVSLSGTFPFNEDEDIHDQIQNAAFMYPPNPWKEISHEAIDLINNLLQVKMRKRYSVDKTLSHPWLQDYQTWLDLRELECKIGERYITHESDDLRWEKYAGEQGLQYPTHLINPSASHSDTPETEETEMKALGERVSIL
HSV replic up – HSV replication enhancement; HSV replication augmentation in cells, fold increase; maximum fold increase; 220,000 compounds, 0.005% hits; AID 1956;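 active means peak rise of 1.5-fold or more in the series; tested in PC3 cells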;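 further: first round at 10 µM; read as green reporter fluorescence; hits show the peak of a series up to 25 µM; 1 = signal of infected wells without compound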
Insulin prom inh cell count – also measured in Insulin prom inh; calls as there; normalized cell count, %; measured here: cell count, toxicity; reference of the scale not given here;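 cells exposed to compound for 48 h; stained nuclei by imaging scaled within each plate; lower means fewer cells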
HSV replic up primary fold – further read-out of HSV replic up, marked with its call; fold increase; compound at 10 µM; measured here: primary screen fold increase 10 uM; tested in PC3 cells;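 GFP signal in the first replicate; 1 = infected wells without compound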
* marks the source's active call; other numbers are inactive results; i = inactive; nt = not tested or not shown. An unsorted share of the library; overall some 1.1% were active at least once.

mol	HSV replic up primary fold	Insulin prom inh	GALR2 ag	Insulin prom inh cell count	PKD1 inh	RGS16-Gao HTS	HSV replic up
O=C(CSc1nc(-c2ccc(F)cc2)cs1)NCCN1C(=O)CSC1=O	1.1	nt	nt	nt	3	101	i
CCCCCN1C/C=C\C(c2ccc(OC)cc2)N(Cc2ccc(F)cc2)C(=O)C1 (stereo unspecified)	0.94	nt	nt	nt	nt	98	i
CCOCC(=O)Nc1ccc([N+](=O)[O-])cc1C	0.9	33	nt	96	-7	90	i
O=C(COc1cccc2cccnc12)N1CCc2ccccc21	1.1	nt	nt	nt	-4	56	i
Nc1ccc(NC(=O)c2ccco2)c(Cl)c1	0.96	nt	nt	nt	-4	105	i
Cc1ccccc1Nc1c(F)c(F)c(F)c(F)c1C(=O)O	1	nt	nt	nt	-3	101	i
O=C(c1nn(-c2ccccc2)c(=O)c2ccccc12)N1CCN(c2ncccn2)CC1	0.97	nt	nt	nt	-3	104	i
C=CCNC(=S)Nc1sc2c(c1C(=O)OCC)CC(C)(CC)OC2 (stereo unspecified)	0.81	nt	1.5	nt	-9	99	i
COc1cccc(N2CCN(C(=O)c3ccc4nc(N5CCC(C)CC5)sc4c3)CC2)c1	1	nt	nt	nt	nt	103	i
Cc1cc(C)c(NC(=O)Nc2ccccc2C)c(Cl)c1	0.87	nt	nt	nt	-3	104	i
CCC1(C)COC2(OC1)C(=O)Nc1ccccc12 (stereo unspecified)	0.77	nt	-2.0	nt	-11	99	i
O=C(CCCNC(=O)/C(=C\c1ccccc1F)NC(=O)c1ccccc1)OCc1ccccc1	1.1	-257	-5.9	113	-8	104	i

2 of these compounds, set out differently.
Each structure is followed by: HSV replic up primary fold | Insulin prom inh | GALR2 ag | Insulin prom inh cell count | PKD1 inh | RGS16-Gao HTS | HSV replic up
Nc1ccc(NC(=O)c2ccco2)c(Cl)c1
 : 0.96 | nt | nt | nt | -4 | 105 | i
Cc1ccccc1Nc1c(F)c(F)c(F)c(F)c1C(=O)O
 : 1 | nt | nt | nt | -3 | 101 | i

Following part:
mol	HSV replic up primary fold	Insulin prom inh	GALR2 ag	Insulin prom inh cell count	PKD1 inh	RGS16-Gao HTS	HSV replic up
COc1ccc(C2c3ccc4ccccc4c3Oc3ncn4nc(Cc5ccccc5)nc4c32)cc1OC (stereo unspecified)	0.86	-12	0.2	170	2	108	i
CN(C)c1ccc(/C=C2/C(=O)N(c3ccc([N+](=O)[O-])cc3)N=C2N2CCOCC2)cc1	0.89	3	-2.7	97	-23	99	i
COc1ccccc1NC(=O)CSc1ccc2nnc(-c3ccc(C)cc3)n2n1	nt	nt	nt	nt	-6	100	nt
COc1cccc(NC2=C(Cl)C(=O)OC2OC(=O)c2ccco2)c1 (stereo unspecified)	0.95	nt	nt	nt	-2	99	i
CCOc1ccccc1NC(=O)COC(=O)CSc1ccc(Cl)cc1	1	8	-1.3	79	1	51	i
COc1ccc(-c2[nH]ncc2-c2cnc(C)s2)c(O)c1	0.79	nt	-3.9	nt	-2	98	i
CC1(C)CC(NC(=O)Cc2ccccc2[N+](=O)[O-])CC(C)(C)N1	1.1	-32	0.1	66	5	74	i
Cc1ccccc1NC(=O)C1CCCN1S(=O)(=O)c1ccc2c(c1)n(C)c(=O)c(=O)n2C (stereo unspecified)	nt	-76	0.0	103	-3	112	nt
Cc1nn(C)c(C)c1NC(=O)CSc1nc(Cc2ccccc2)nc2c1cnn2-c1ccccc1	0.97	-27	-4.0	220	-7	nt	i
CCOCC(=O)Nc1cc(C(=O)NCCC(C)C)ccc1Cl	0.96	nt	nt	nt	-5	105	i
O=C(CSc1nnnn1C1CCCCC1)N1CCCC1	1	45	-1.7	95	-1	93	i
CCN(CC)C(=O)c1ccccc1NC(=O)c1ccccc1	0.99	0	nt	91	-3	101	i

(further entries)
mol	HSV replic up primary fold	Insulin prom inh	GALR2 ag	Insulin prom inh cell count	PKD1 inh	RGS16-Gao HTS	HSV replic up
NC(=O)CC(NC(=O)Cc1cccc2ccccc12)c1ccc(NC2CCCCC2)c([N+](=O)[O-])c1 (stereo unspecified)	0.84	nt	nt	nt	nt	95	i
O=C(NCCCn1ccnc1)C(=O)NCC1OCCN1S(=O)(=O)c1cc(F)ccc1F (stereo unspecified)	1.1	nt	nt	nt	nt	105	i
O=C(NCc1cccs1)Nc1ccc(Cl)cc1	0.99	nt	-2.1	nt	-6	111	i
Nn1c(SCC(=O)NC(=O)NCc2ccco2)nnc1-c1ccc(OC(F)F)cc1	nt	-2	-2.5	137	0	90	nt
N#Cc1nn(-c2ccccc2)nc1N1CCCCC1	0.95	4	-0.2	97	-2	98	i
CCOc1ccc(CCNC(=O)C2CCN(S(=O)(=O)N3CCC(C)CC3)CC2)cc1OCC	0.98	-94	-0.6	95	13	108	i
O=C(NCCN1CCCCCC1)c1ccc(CS(=O)(=O)c2ccc(Br)cc2)o1	0.98	nt	-0.9	nt	-3	99	i
COc1ccccc1OC1OC2COC(c3ccco3)OC2C(O)C1NC(C)=O (stereo unspecified)	0.87	-5	-1.6	46	-16	64	i
COc1cccc(CN2CCC(C(=O)N3CCN(c4ccccc4F)CC3)CC2)c1	nt	50	-0.2	100	5	108	nt
Cc1ccc(S(=O)(=O)N2CCCC(C(=O)NCCCN3CCCCC3C)C2)cc1 (stereo unspecified)	1	8	0.2	97	-6	96	i
CC(C)CNC(=O)c1nc(-c2ccccc2)n(-c2ccccc2)n1	0.99	63	-1.7	49	-4	108	i
CCc1c(C)sc(NC(=O)c2cnn3cccnc23)c1C#N	0.97	33	-3.0	144	-6	95	i

Record cards, from the list above.
`O=C(NCc1cccs1)Nc1ccc(Cl)cc1` is listed with HSV replic up primary fold = 0.99; Insulin prom inh = nt; GALR2 ag = -2.1; Insulin prom inh cell count = nt; PKD1 inh = -6; RGS16-Gao HTS = 111; HSV replic up = i
`O=C(NCCCn1ccnc1)C(=O)NCC1OCCN1S(=O)(=O)c1cc(F)ccc1F` (stereo unspecified) is listed with HSV replic up primary fold = 1.1; Insulin prom inh = nt; GALR2 ag = nt; Insulin prom inh cell count = nt; PKD1 inh = nt; RGS16-Gao HTS = 105; HSV replic up = i
`CC(C)CNC(=O)c1nc(-c2ccccc2)n(-c2ccccc2)n1` is listed with HSV replic up primary fold = 0.99; Insulin prom inh = 63; GALR2 ag = -1.7; Insulin prom inh cell count = 49; PKD1 inh = -4; RGS16-Gao HTS = 108; HSV replic up = i

Next section:
mol	HSV replic up primary fold	Insulin prom inh	GALR2 ag	Insulin prom inh cell count	PKD1 inh	RGS16-Gao HTS	HSV replic up
Cc1ccc(C(=O)COc2ccc3ccc(=O)oc3c2)cc1	0.95	nt	nt	nt	nt	97	i
O=C(COC(=O)/C=C/c1ccc(F)cc1)NCc1ccco1	0.82	33	nt	116	-2	99	i
Cn1ccnc1C(=O)c1cccc([N+](=O)[O-])c1	1	nt	-1.1	nt	1	101	i
CC(=O)Nc1ccc(S(=O)(=O)N2CCN(Cc3cccs3)CC2)cc1	1.1	nt	nt	nt	0	97	i
O=C(CCc1nnc(CCCc2ccccc2)o1)NC(C1CC1)C1CC1	1	nt	nt	nt	-6	103	i
CC(C)CCOc1ccccc1C(N)=O	0.86	-7	nt	73	-4	114	i
O=C(Cn1nc(-c2ccc(Cl)cc2)c2ccccc2c1=O)NCC1CCCO1 (stereo unspecified)	0.95	38	-0.5	80	-8	106	i
COc1ccc2c(C(=O)CN3CC(C)OC(C)C3)c[nH]c2c1 (stereo unspecified)	1	nt	-2.7	nt	-10	105	i
O=C(C[n+]1cccc2ccccc21)c1ccc([N+](=O)[O-])cc1	1	-200	nt	71	-8	121	i
CCCc1nc2oc3cc(OC)ccc3c(=O)c2c(=O)n1CCc1ccccc1	0.91	nt	nt	nt	nt	94	i
CCC(=O)Nc1c(C(=O)N2CCN(c3ccccn3)CC2)cnn1-c1ccc(Cl)cc1	0.89	14	-0.2	55	-6	121	i
COC(=O)c1ccccc1OS(=O)(=O)N(C)C	0.81	35	nt	114	4	98	i

(further entries)
mol	HSV replic up primary fold	Insulin prom inh	GALR2 ag	Insulin prom inh cell count	PKD1 inh	RGS16-Gao HTS	HSV replic up
COc1cccc(N2CC(C(=O)NC3CCCCC3)CC2=O)c1 (stereo unspecified)	0.94	nt	-0.6	nt	0	98	i
CCCCCCCSc1nsc(N)n1	1.1	-225	-1.9	51	-5	107	i
CC(C)CC1(C)NC(=O)N(CC(=O)NC(=O)Nc2ccc3c(c2)OCCO3)C1=O (stereo unspecified)	0.89	nt	-2.6	nt	2	98	i
CC(C)C1CC(CCN)(c2ccccc2)CCO1 (stereo unspecified)	0.82	nt	nt	nt	nt	108	i
COc1ccc2[nH]c(C(=O)NCCN3CCCCC3)cc2c1	0.93	nt	nt	nt	nt	101	i
O=C(O)C1C2C=CC(O2)C1C(=O)NCc1ccccc1Br (stereo unspecified)	1	0	-1.4	92	4	102	i
O=C(c1cccc2ccccc12)C1CCCN(C(=O)CCCn2cncn2)C1 (stereo unspecified)	1	nt	nt	nt	-10	105	i
CCc1nc(C)ccc1OC(=O)C12CC3CC(CC(C3)C1)C2	1.1	nt	-0.9	nt	7	101	i
CCOC(=O)c1cccc(NC(=O)CSc2nnnn2C)c1	1	-18	0.3	64	4	100	i
Cc1ccc(NS(=O)(=O)c2cc([N+](=O)[O-])ccc2NNC(=S)Nc2cc(C)ccc2C)c(C)c1	0.67	8	-0.9	81	4	100	i
OCCN1CCN(C(=S)Nc2ccccc2)CC1	0.97	67	nt	53	0	107	i
CCCC1CC(C)(C(=O)Cn2[nH]c(=O)ccc2=O)OC1=O (stereo unspecified)	nt	-68	-0.8	162	-9	101	nt

For convenience, some entries already given:
mol	HSV replic up primary fold	Insulin prom inh	GALR2 ag	Insulin prom inh cell count	PKD1 inh	RGS16-Gao HTS	HSV replic up
CCOC(=O)c1cccc(NC(=O)CSc2nnnn2C)c1	1	-18	0.3	64	4	100	i
Cc1ccc(NS(=O)(=O)c2cc([N+](=O)[O-])ccc2NNC(=S)Nc2cc(C)ccc2C)c(C)c1	0.67	8	-0.9	81	4	100	i
OCCN1CCN(C(=S)Nc2ccccc2)CC1	0.97	67	nt	53	0	107	i
CCCC1CC(C)(C(=O)Cn2[nH]c(=O)ccc2=O)OC1=O (stereo unspecified)	nt	-68	-0.8	162	-9	101	nt

Next records
mol	HSV replic up primary fold	Insulin prom inh	GALR2 ag	Insulin prom inh cell count	PKD1 inh	RGS16-Gao HTS	HSV replic up
COc1ccc(OC)c(S(=O)(=O)NCc2cn3cccc(C)c3n2)c1	0.82	-238	-1.9	84	-11	124	i
CS(=O)(=O)N(CC(=O)NCc1ccc2c(c1)OCO2)c1cccc(Cl)c1	1.1	27	nt	58	1	107	i
C=CCNC(=O)c1ccc(N(C)S(=O)(=O)c2ccc(OC)cc2)cc1	0.93	-7	-1.4	89	-2	109	i
O=C(Oc1cccc2c(OC(=O)N3CCCC3)cccc12)N1CCCC1	0.95	-185	-0.4	90	7	105	i
Cc1ccc(C(C(=O)NC2CCCC2)N2CCCC(C)C2)cc1 (stereo unspecified)	0.93	nt	-2.0	nt	-3	104	i
CC(C)c1ccc2nc3sc(C(=O)N4CCc5ccccc5C4)c(N)c3cc2c1	0.98	nt	-3.4	nt	3	100	i
COc1ccc(O)c(C(=O)c2coc(=N)c(C(=O)Nc3ccc(SC(F)F)cc3)c2)c1	nt	-82	nt	95	-2	97	nt
Cc1cc(C)n2nc(N)c(N=Nc3ccc4c(c3)OCO4)c2n1	0.97	54	-0.1	155	-5	107	i
COc1ccccc1NC(=O)N1CCN(CCc2ccccc2)CC1	1	nt	nt	nt	nt	108	i
CCCn1c(NCc2cc(OC)ccc2OC)nc2ccccc21	0.85	nt	0.1	nt	-2	107	i
